gsp ag – agonists of gsp mutant (McCune-Albright syndrome); AID 624287; hit rate 0.13% among 340,000; gsp mutant cells, cAMP HTRF, 30 min; control for the full effect not named in the record; Potency, µM (doses to about 76.9 µM), for the others: top-dose activation (cAMP increase), actives largely listed as activators; active = well fitted activation curve with a large enough effect; inconclusive = small, poorly fitted or top-dose-only effect, or another doubt; inactive = no such curve, though single readings can be large or run the other way; cell line not stated here;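 also: phosphodiesterase inhibitor Ro 20-1724 added with compounds to block cAMP breakdown; potency is read from the fitted curve at half-maximal effect; nearly all actives have a fitted effect of over 60% in size; about a fifth of the inactives were tested at one dose only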
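Cells in DMEM/10% FBS with G418 were pretreated with compounds in DMSO plus […] (300 uM stock) for 30 min at 37C. cAMP was measured by HTRF (cAMP-d2 plus anti-cAMP antibody-K) after 30 min at room temperature.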
ClpP mod – qHTS Assay for Activators of ClpP | ATP-dependent Clp protease proteolytic subunit (Bacillus subtilis (strain 168)), P80244 | purified B. subtilis ClpP, FRET peptide cleavage, 20 min | Potency, µM (highest dose often 57.5 µM), without a hit: top-dose activity change, negative = active | hit rate 1.9% among 340,000 | AID 651965, 2013; active = well fitted falling curve with a large enough effect; inconclusive = small, poorly fitted or top-dose-only effect; inactive = no such curve, though single readings can be large or run the other way; also: potency is read from the fitted curve at half-maximal effect; the source files actives as falling curves though it sought activators and does not explain the sign; nearly all actives have a fitted effect of over 65% in size; many hits overshoot -100%
Target sequence (P80244 whole entry, looked up): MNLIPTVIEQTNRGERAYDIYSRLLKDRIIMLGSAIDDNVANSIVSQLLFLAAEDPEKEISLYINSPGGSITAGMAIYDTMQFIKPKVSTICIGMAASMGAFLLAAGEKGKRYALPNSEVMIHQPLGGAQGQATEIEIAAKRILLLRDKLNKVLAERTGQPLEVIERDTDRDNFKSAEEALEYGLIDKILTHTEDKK
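Purified B. subtilis ClpP, 10 microg/mL final in Tris/HCl pH8 with KCl, BSA, glycerol and Tween-20, cleaved an Abz/nitrotyrosine-quenched decapeptide. Fluorescence (ex 320, em 430) was read at 0 and 20 min at room temperature. Delta was normalized to 5.8 microM ADEP and DMSO/no-enzyme controls.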
TRPV1 potentiator – human TRPV1 potentiation; Q8NER1; TRPV1-expressing cells, Fluo-8 calcium influx, capsaicin EC20 potentiation; host cell line not named in the record; control for the full effect not named in the record; potentiation, % at 8.33 µM; hit rate 0.02% among 320,000; AID 540277; active means potentiation above 80%; inconclusive means 30% to 80%; inactive means below 30%; also: 0% is about no effect
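Cells expressing TRPV1 were dye-loaded with Fluo-8 and read kinetically: 10 s baseline, 3 min after compound (agonist portion), then 2 min after EC20 capsaicin (allosteric enhancer portion). Calcium-bound dye fluorescence at 480/520 nm.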
TRPML1 blocker – human mucolipin-1 channel inhibition. Q9GZU1. TRPML1-inducible cells, Ca2+ dye fluorescence, FDSS; hits give low values; inhibition of EC80 agonist-evoked calcium signal. activity change, negative = inhibition, % (test concentration not listed). hit rate 0.02% among 390,000. AID 624415; in the data active means activity change below about -50%; inconclusive means about -30% to -50%; inactive means above about -30%;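 also: stimulus is agonist 54-4 at its EC80 concentration; % is scaled to controls: 0 for no effect and ±100 for the full control effect; compound concentration not given in the record; the text of the record puts the active cut at -80%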
Target sequence (Q9GZU1 whole entry, looked up): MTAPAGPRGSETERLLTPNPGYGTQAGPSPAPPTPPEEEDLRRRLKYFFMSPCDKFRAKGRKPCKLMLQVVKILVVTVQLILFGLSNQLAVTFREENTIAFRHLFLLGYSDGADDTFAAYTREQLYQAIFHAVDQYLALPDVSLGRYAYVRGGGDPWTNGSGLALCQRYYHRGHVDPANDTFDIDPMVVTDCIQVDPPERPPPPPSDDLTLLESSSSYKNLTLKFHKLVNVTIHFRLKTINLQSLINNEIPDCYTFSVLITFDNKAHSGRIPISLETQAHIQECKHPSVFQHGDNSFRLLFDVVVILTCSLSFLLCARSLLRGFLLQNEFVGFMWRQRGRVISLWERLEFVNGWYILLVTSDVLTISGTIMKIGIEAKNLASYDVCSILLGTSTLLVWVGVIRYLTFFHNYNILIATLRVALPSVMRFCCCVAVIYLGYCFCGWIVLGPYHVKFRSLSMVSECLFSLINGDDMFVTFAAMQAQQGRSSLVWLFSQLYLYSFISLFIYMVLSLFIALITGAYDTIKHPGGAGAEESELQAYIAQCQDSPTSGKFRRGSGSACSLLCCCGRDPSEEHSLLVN
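Tet-induced TRPML1-DL cells loaded with Ca8 no-wash calcium dye were read kinetically on FDSS. Compound addition was followed by EC80 agonist 54-4 (4 uM final); inhibition was read over 110 s.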
Menin-MLL FL inh – menin-MLL binding inhibition, fluorescein peptide; Fluorescence polarization, fluorescein-MLL peptide displacement from menin; FP activity change, % at 61.4 µM; 290,000 tested, under 10 active; AID 1766; inconclusive = falling polarisation curve, or a change in total fluorescence; inactive = total fluorescence flat and polarisation flat or rising; no compound was filed as active; the % refers to the polarisation; negative = inhibition;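 also: % of control where 0% means no effect; inhibitors lower the polarisation; unlabelled MLL peptide was the positive control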
Sfp PPTase inh – Sfp phosphopantetheinyl transferase inhibition; Biochemical Sfp PPTase activity, qHTS; Potency, µM, for inactives: max response, negative = inhibition, most hits filed as inhibitors; hit rate 3.5% among 310,000; Q9F4F7; active = well fitted inhibition curve with a large enough effect; inconclusive = small, poorly fitted or top-dose-only effect, or another doubt; inactive = no such curve, though single readings can be large or run the other way;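 also: the enzyme is Sfp with the accession as filed and its product quenches rhodamine fluorescence; potency is read from the fitted curve at half-maximal effect; 0% = enzyme reaction without inhibitor and -100% = no enzyme wells; top concentration of the series not given in the record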
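Step 1, compound plus 15 nM Sfp-PPTase, 15 min, room temperature. Step 2, add rhodamine-CoA (5 uM) and BHQ-2-YbbR (12.5 uM). Step 3, read 525/598 nm fluorescence at 0 and 30 min.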
gsp antag – gsp mutant antagonism. hit rate 0.4% among 340,000. gsp-mutant cells, cAMP HTRF, 30 min; control for the full effect not named in the record. Potency, µM (titrated, usually from 76.9 µM), without a hit: at the highest dose activity change, negative = inhibition, hits mostly inhibitors; active = falling curve of any shape with a large fitted effect; inconclusive = falling curve, mostly with a smaller effect; inactive = flat or rising curve; cell line not stated here;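 also: intracellular cAMP measured with PDE inhibitor Ro 20-1724 present during compound exposure; potency is read from the fitted curve at half-maximal effect; % is scaled to controls: 0 for no effect and ±100 for the full control effect; nearly all actives have a fitted effect of over 65% in size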
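HTRF cAMP measurement after 30 min RT detection following 30 min, 37C compound treatment alongside […] (added as 300 uM solution) in G418-selected cells seeded at 2000/well and grown 16–24 h.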
An asterisk follows results filed as active; ? = inconclusive; . = not tested or not shown; & = joins results of further samples; [ ] = another dose, or the depositor's remark.

Compound,gsp ag,ClpP mod,TRPV1 potentiator,TRPML1 blocker,Menin-MLL FL inh,Sfp PPTase inh,gsp antag
Cc1cccc(C)c1OCc1cc(C(=O)NC2CCC(O)CC2)no1 (configuration not stated),-3%,-0.8%,-28,12,.,8%,10%
CCOC(=O)C1(CCC(=O)OCc2ccccc2)CCCCC1=O (configuration not stated),-1%,-1.9%,.,20,.,.,4%
COc1cc(Cl)c(NS(=O)(=O)c2cc3[nH]c(=O)c(=O)[nH]c3cc2C)c(OC)c1,?,-7.9%&-2.1%,-10,8&12,-7.2,9%,1%
O=C(Nc1cc2c(cc1Cl)OCCCO2)c1ccccc1,-21%,-0.3%,-18,-2,1.7,2%,-4%
O=C1N[C@@H](c2ccccc2)COC(=O)[C@@H](Cc2ccc(F)cc2)CC/C=C/C[C@@H]1CC(=O)N(CCO)Cc1ccccc1,.,-1.8%,.,15,.,.,-30%
COC(=O)CCN(C(=O)c1cccc([N+](=O)[O-])c1)c1ccccn1,-10%,.,18,-18,-5.6,21%,8%
Cc1ccc(NC(=S)N/N=C2\CCCCC2C)cc1 (configuration not stated),1%[15.4 µM],0.2%,-7,5,0.1,-20%,12%
Cc1ccc(S(=O)(=O)n2ccc(=O)[nH]2)cc1,0%,-1.0%,2,7,-7.8,4%,-4%
CC(C)Cc1cc(C(=O)N2CCN(C(c3ccccc3)c3ccccc3)CC2)no1,0%,-1.8%,.,-15,-3.0,6%,-3%
CCOCCCNCc1c(Cl)cccc1Cl,-3%,-1.2%,-3,-10,-2.0,?,5%
COc1ccc(C(=O)OCCN2CCCCC2)cc1,?,.,12,21,4.9,20%,3%
COc1ccc(-n2c(C)nc3cc(C(=O)NCc4ccco4)ccc32)cc1,-4%,-1.8%,-11,2,0.1,?,-4%[15.4 µM]
O=C(O)C1CCN(S(=O)(=O)c2ccc(Cl)s2)CC1,-2%,.,.,-14,.,.,0%
COc1ccc(CN2CN(c3ccc(Cl)cc3)C(=O)N(n3cnnc3)C2)cc1,-14%,0.5%,3,-4,-0.4,6%,6%
Cc1c(C(=O)NNC(=S)Nc2cccc(Cl)c2)nnn1-c1ccccc1,-12%,0.6%,11,8,0.1,-2%,-26%
Cc1ccc(CNc2nnnn2C)cc1,-39%[inhibitor],0.0%,?,.,5.1,18%,1%
COCCNC(=O)CN(C(=O)c1ccc(N2CCCC2)nc1)c1ccc(F)c(Cl)c1,-4%,.,-3,-10,-0.2,6%,1%
Cc1ccc(S(=O)(=O)/C(=C\N(C)C)c2cnc(Cl)s2)cc1,6%[15.4 µM],.,-6,3,-2.2,2%,.
CCN(C1CCCCC1)S(=O)(=O)c1cn(C)c(=O)n(C)c1=O,-2%,-1.7%,9,-8,-0.5,26%,10%
Cc1cc(C(=O)NNC(=S)NC(C)c2ccccc2)c2ccccc2n1 (configuration not stated),0%,16%,10,18,0.6,-2%,-2%
CCc1cc2c(SCC(=O)C(C#N)=C3N(C)c4ccccc4N3C)ncnc2s1,?,-1.0%,5,4,11,-13%,1%
Cc1cc(-c2[nH]nc3c2C(c2ccc(Cl)cc2)C(C#N)=C(N)O3)c(C)s1 (configuration not stated),17%,-0.1%,1,1,0.9,10%,2%
O=C(CCC(=O)OCC(=O)c1ccc(Br)cc1)NC1CCCCC1,20%,1.5%,10,3,-0.8,4%,-3%
O=C(CN1CCC(NC(=O)Nc2ccccc2)CC1)Nc1cccc([N+](=O)[O-])c1,-4%[15.4 µM],0.9%,1,0,1.2,4%,6%
O=C(NNS(=O)(=O)c1ccccc1[N+](=O)[O-])c1cc2ccccc2cc1O,0%,.,7,41,1.2,-19%,-15%
Cc1nc(-c2ccccc2)c(-c2ccccc2)[nH]1,3%,25µM*,?,7,2.5,2%,-15%
Cn1c(SCC(=O)NC2CCCCC2)nnc1-c1ccc(N)cc1,-4%[15.4 µM],.,9,-9,7.2,0%,6%
Cc1ccc([C@@H]2CC(=O)[C@@H]3CN(S(=O)(=O)c4ccc(C)cc4)[C@H](c4ccc(Cl)cc4)C[C@@H]3N2S(=O)(=O)c2ccc(Cl)cc2)cc1,-37%[inhibitor],-0.7%,.,38,.,.,.
CC1CCCN(C(=O)CSc2nnc(-c3ccncc3)n2C)C1 (configuration not stated),-34%,-2.9%,8,9,-2.8,18%,11%
O=C(Nc1nc2ccc(Cl)cc2s1)[C@@H]1CCCN1C(=O)c1cccs1,19%,-2.7%,12,-7,1.6,-15%,-8%
C(=NN1CCCCCC1)c1ccc2c(c1)OCO2,6%[15.4 µM],0.1%,.,-14,.,.,-17%
CC12Cc3ccc4ccccc4c3C=C1C[N+](C)(C)C2 (configuration not stated),-18%,-0.9%,13,4,2.2,4%,-11%
Nn1cc(-c2ccccc2)nc1SCC(=O)NCC(F)(F)F,-16%,-3.4%,-3,-4,0.4,13%,-14%
COc1ccc(C2C(C(C)=O)=C(O)C(=O)N2c2nc3ccccc3s2)cc1OC (configuration not stated),?,-1.0%,11,-18,-3.0,-18%,-14%
CCOC(=O)N1CCN(C(=O)CSc2ccc(Cl)cc2)CC1,2%,-1.4%,-1,0,-2.1,4%,4%
COC(=O)[C@]1(C)N[C@H](c2ccc(-c3ccc(F)cc3)cc2)[C@@H]2C(=O)N(C)C(=O)[C@@H]21,?,-2.3%,-3,8,.,.,2%
N#Cc1cc(C(=O)c2cc(F)ccc2O)cn(-c2nccs2)c1=O,-5%[15.4 µM],1.4%,-17,-14,?,-6%,?
CC(C)C(NS(=O)(=O)c1c(Cl)cccc1Cl)C(=O)OCC(=O)c1c[nH]c2ccccc12 (configuration not stated),10%,-2.8%,0,-11,0.1,16%,?
COc1ccc(NC(=O)COC(=O)C2COc3ccccc3O2)cc1OC (configuration not stated),5%,-0.5%,.,23,.,.,.
Cc1ccc(C(=O)Nc2ccnc(-c3cccnc3)n2)cc1,-35%[inhibitor],1.3%,?,23,-5.9,4%,-3%
NS(=O)(=O)c1ccc(NCc2cc(Cl)ccc2OCc2ccccc2F)cc1,-2%,1.5%,?,13,-2.5,4%,-3%
CCCCn1c(CCC)nc([N+](=O)[O-])c1Sc1ccc(Cl)cn1,21%,-0.2%,-19,12,0.0,-5%,-25%
Cc1nn(Cc2ccc(F)cc2)c(C)c1NC(=O)c1cccnc1Cl,-2%[15.4 µM],-1.3%,-2,6,5.6,13%,-13%
Nc1cccc2[nH]c(C(F)(F)F)nc12,-17%[15.4 µM],.,7,1,-5.8,4%,-21%
O=C(NCCCN1CCOCC1)C1(c2ccccc2)CCOCC1,10%,1.2%,1,-4,-1.2,6%,0%
Cc1ccc(Sc2c(O)c3ccccc3n(C)c2=O)cc1,13µM*,-9.1%,4,2,4.7,2%,23%
CCC(Oc1ccccc1)C(=O)N1CCN(C(=O)C(CC)Oc2ccccc2)CC1 (configuration not stated),-21%,0.5%,-9,-7,1.3,-1%,-5%
CCn1c(SCC(=O)c2c(N)n(C)c(=O)n(C)c2=O)nc2sc(C)c(C)c2c1=O,.,.,-26,.,-1.8,-25%,.
O=C(NCCc1c[nH]c2ccccc12)C(=O)NCC(c1cccnc1)N1CCN(c2ccccc2)CC1 (configuration not stated),?,-0.2%,3,-4,-2.2,-8%,-9%
CCOc1ccc(NC(=O)c2ccccc2NS(=O)(=O)c2ccc(F)cc2)c([N+](=O)[O-])c1,32%,1.2%,-4,7,0.3,9%,?
COc1ccccc1CNC(=O)C(C)n1cccc1C(=O)c1ccccc1 (configuration not stated),?,-0.2%,-3,5,.,5%,-4%
O=C(CSc1nc(-c2ccccc2)ns1)NCC1CCCO1 (configuration not stated),24%,-2.6%,2,1,.,35µM*,2%
O=C(NCc1ccccc1)C1=C[C@H](C2CCCCC2)C[C@H](OCc2ccc(CO)cc2)O1,.,-4.9%,11,67,0.8,4%,-12%
CO/N=C/c1ccc(Sc2ccccc2)c([N+](=O)[O-])c1,18%,-2.1%,-11,71,3.3,-16%,-2%
CCOc1ccccc1CNS(=O)(=O)c1ccc2c(c1)oc(=O)n2C,-41%[inhibitor],-0.2%,-14,29,3.2,4%,0%
Cn1cc(CNC(=O)c2ccc(OC3CCN(Cc4ccccn4)CC3)cc2)cn1,1%,-1.1%,-17,15,.,0%,4%
O=C(Cn1nc(-c2cccc([N+](=O)[O-])c2)c2ccccc2c1=O)NCC1CCCO1 (configuration not stated),?,.,-1,-5,-1.5,4%,11%
CCc1nnc(NC(=O)c2cccc(NC(=O)C(C)C)c2)s1,8%,0.4%,-14,4,-6.6,-1%,-15%
O=C1NC(c2ccccn2)Nc2sc3c(c21)CCC3 (configuration not stated),-1%,-12%,7,3,?,32µM*,5%
COCCCNC(=O)c1ccc([N+](=O)[O-])cc1,30%,.,5,15,2.2,21%,7%

Records above marked active in gsp ag.
mol	gsp ag	TRPML1 blocker	Menin-MLL FL inh	Sfp PPTase inh
Cc1ccc(Sc2c(O)c3ccccc3n(C)c2=O)cc1	13µM*	2	4.7	2%

(next part)
Compound,gsp ag,ClpP mod,TRPV1 potentiator,TRPML1 blocker,Menin-MLL FL inh,Sfp PPTase inh,gsp antag
COc1ccc(CNC(=O)CCNC(=O)c2ccco2)cc1OC,-6%,-1.1%,1,14,.,.,14%
O=C(COc1ccc(C(=S)N2CCOCC2)cc1)Nc1ccccc1C(F)(F)F,-2%[15.4 µM],.,7,-12,-0.5,2%,3%
CCCc1nc2sc3c(=O)n(N)cnc3c2c2c1COC(C)(C)C2,.,.,26,.,-2.8,4%,.
CCCC(=O)Nc1ccc(-c2nc3cc(C)c(C)cc3o2)c(O)c1,5%,15%,-6,-2,4.6,8%,6%
